RGS16-Gao – regulators of human RGS16-Galphao interaction; bead-based flow cytometry RGS16-Galphao binding, fluorescence; actives lie on both sides; O15492+P09471; binding response (% of control), % at 10 µM; hit rate 0.38% among 220,000;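 active = below 25% or above 175%, edge rows of some plates excepted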;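 note: Galphao activated by GDP with aluminum fluoride before binding; 100% = wells without compound and 0% = beads without RGS; some results beyond the cut were filed as inactive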
Target sequence (O15492 whole entry, looked up): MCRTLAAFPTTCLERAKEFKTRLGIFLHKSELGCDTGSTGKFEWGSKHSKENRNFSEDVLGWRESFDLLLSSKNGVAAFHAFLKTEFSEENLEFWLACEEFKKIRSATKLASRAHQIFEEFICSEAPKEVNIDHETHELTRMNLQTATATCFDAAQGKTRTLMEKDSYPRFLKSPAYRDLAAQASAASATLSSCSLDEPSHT
Target sequence (P09471 whole entry, looked up): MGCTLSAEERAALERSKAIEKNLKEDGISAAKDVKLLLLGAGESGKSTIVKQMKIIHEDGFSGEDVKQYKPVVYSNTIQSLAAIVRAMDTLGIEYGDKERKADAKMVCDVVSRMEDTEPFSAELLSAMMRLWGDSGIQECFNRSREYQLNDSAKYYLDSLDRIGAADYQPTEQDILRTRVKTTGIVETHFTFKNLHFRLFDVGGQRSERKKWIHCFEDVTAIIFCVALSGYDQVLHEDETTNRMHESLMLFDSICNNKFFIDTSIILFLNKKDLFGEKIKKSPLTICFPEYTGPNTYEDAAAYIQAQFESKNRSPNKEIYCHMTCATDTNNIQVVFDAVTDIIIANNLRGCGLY
INS promoter inh – TRM-6 insulin promoter activity inhibition; inhibition, % at 2 µM; TRM-6 cells (human fetal islet line), insulin promoter-eGFP reporter, imaging; reporter expression induced with tamoxifen; hit rate 0.9% among 130,000;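 active = inhibition above the mean plus 3 SD, with well images judged a real hit on visual review, cut at about 60% in these data, passing the limit was not always enough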
PKD1 kinase inh – blocks activity of human protein kinase D1; Q15139; PKD1 kinase fluorescence polarization assay; inhibition, %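 (about 10 µM by stock and volumes)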; hit rate 0.056% among 200,000;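 active = inhibition of 50% or more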;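 note: controls were vehicle for no effect and a reference inhibitor for full effect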
GALR2 ag – activates the human galanin receptor 2; GALR2-expressing cells, agonist activation read-out; O43603; hit rate 0.48% among 140,000; AID 803; activation, %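 (tested at 5 µM)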;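 active = above mean plus 3 SD of all compounds, about 5% in these data, not always enough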;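 note: 0% = vehicle buffer wells and 100% = reference agonist at full effect; tested in CHO reporter cells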
Target sequence (O43603 whole entry, looked up): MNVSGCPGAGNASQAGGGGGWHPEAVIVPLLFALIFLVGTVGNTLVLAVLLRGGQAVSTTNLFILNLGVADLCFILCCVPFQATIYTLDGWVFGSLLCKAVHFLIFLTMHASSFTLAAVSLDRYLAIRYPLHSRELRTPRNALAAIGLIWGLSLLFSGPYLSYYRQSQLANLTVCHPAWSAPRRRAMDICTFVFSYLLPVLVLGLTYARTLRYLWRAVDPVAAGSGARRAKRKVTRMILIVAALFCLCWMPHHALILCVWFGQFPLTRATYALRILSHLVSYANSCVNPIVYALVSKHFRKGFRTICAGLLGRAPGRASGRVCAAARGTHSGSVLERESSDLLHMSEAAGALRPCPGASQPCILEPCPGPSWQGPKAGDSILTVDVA
HSV replic up – HSV replication enhancement; HSV replication augmentation in cells, fold increase; maximum fold increase; hit rate 0.005% among 220,000; AID 1956;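 active = peak rise of 1.5-fold or more in the series; tested in PC3 cells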;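 note: first round at 10 µM; read as green reporter fluorescence; hits show the peak of a series up to 25 µM; 1 = signal of infected wells without compound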
INS promoter inh cell count – recorded beside INS promoter inh, whose call it bears; normalized cell count, %; measured here: cell count, toxicity; reference of the scale not given here;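 cells exposed to compound for 48 h; stained nuclei by imaging scaled within each plate; lower means fewer cells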
HSV replic up primary fold – also measured in HSV replic up; calls as there; fold increase; compound at 10 µM; measured here: primary screen fold increase 10 uM; tested in PC3 cells;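 GFP signal in the first replicate; 1 = infected wells without compound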
Numbers without * were called inactive; i = inactive; . = not tested or not shown.

Under each structure: HSV replic up, PKD1 kinase inh, RGS16-Gao, GALR2 ag, HSV replic up primary fold, INS promoter inh, INS promoter inh cell count
Cc1cc(N2C(=O)CCC2=O)n(-c2ccccc2)n1
  i, -6, 101, -2.8, 0.89, -21, 158
COC(=O)c1ccc(NC(=O)C2C3C=CC(O3)C2C(=O)O)cc1 (stereo not given)
  i, -4, 105, -1.8, 1, 6, 107
CCCC(O)(CCN1CCOCC1)c1ccc(Cl)cc1 (stereo not given)
  i, ., 103, ., 0.95, ., .
CN(C)S(=O)(=O)N1CCN(S(=O)(=O)c2ccccc2)CC1
  i, -7, 97, -2.1, 0.95, 12, 108
COc1ccc(C2c3c(-c4ccccc4)n[nH]c3C(=O)N2c2ccc(C(=O)O)cc2)cc1 (stereo not given)
  i, ., 104, ., 1, ., .
O=C(COn1nnc2ccccc21)NCC1CCCCC1
  i, 8, 91, -1.4, 0.89, 7, 97
O=C(N1CCN(c2ccccc2F)CC1)C1(c2cccs2)CCOCC1
  i, 1, 99, -0.8, 1.1, ., .
C/C(=N\NC(=O)c1cccc(S(=O)(=O)N2CCCC2)c1)c1cccs1
  i, -4, 100, ., 0.95, ., .
O=C(c1ccc(Cl)cc1)c1c[nH]c(C(=O)NNc2cccc(Cl)n2)c1
  i, 17, 100, ., 0.85, -431, 66
Cc1nc(-c2ccccc2)nc2[nH]c(-c3ccccc3)cc(=O)c12
  i, 0, 104, -0.4, 0.97, 0, 99
Cc1cc(C)nc(NS(=O)(=O)c2ccc(N3C(=O)c4ccccc4C3=O)cc2)n1
  i, 5, 104, -0.1, 1.1, ., .
CC(C)CCNc1nc2ccccc2nc1NS(=O)(=O)c1cccs1
  i, ., 102, ., 1, ., .
O=C(CN1C(=O)C2C3C=CC(C3)C2C1=O)Nc1ccc2nccnc2c1 (stereo not given)
  i, -3, 101, -0.9, 0.84, ., .
CCOC(=O)c1ccc(-c2ccc(/C=N/NC(=O)c3cncc(Br)c3)o2)cc1
  i, ., 95, ., 0.85, ., .
CSc1ccc(C(=O)NCC(=O)O)cc1[N+](=O)[O-]
  i, ., 99, ., 0.97, ., .
Cn1nc(C(F)(F)F)c(/C=N/OC(=O)c2ccccc2Cl)c1SCc1ccccc1Cl
  i, -6, 104, 0.2, 1.2, 64, 67
C/C(=C\c1ccccc1)C(=O)NC1CCSC1=O (stereo not given)
  i, -12, 19, -0.8, 1.2, 38, 102
CNC(=O)COC(=O)c1ccc(OCC(=O)Nc2ccccc2OC)c(OC)c1
  i, 3, 102, ., 1, ., .
COc1ccc(-c2cc3ccc(OCc4nn[nH]n4)cc3oc2=O)cc1
  i, 1, 107, 0.0, 0.9, ., .
O=C(c1ccccc1F)N1CCN(c2ccc([N+](=O)[O-])c(NCc3cccnc3)c2)CC1
  i, ., 90, ., 1.1, ., .
CN(CCOC(=O)c1cccc(F)c1)Cc1ccccc1
  i, 3, 105, -1.4, 0.98, 0, 126
CCOC(=O)C(=Cc1ccc(OCc2ccc([N+](=O)[O-])cc2)c(OC)c1)C(=O)OCC
  i, 9, 100, 2.9, 0.64, 42, 79
COc1cccc(CNC(=O)CCS(=O)(=O)c2cccc3nsnc23)c1
  ., 0, 102, -1.7, ., 3, 115
O=[N+]([O-])c1ccc(Sc2n[nH]c(-c3ccccc3)n2)nc1
  i, -9, 105, -1.8, 0.84, -6, 97
O=C(Oc1ccc(C(=S)N2CCCCC2)cc1)c1ccccc1
  i, -9, 97, ., 0.91, ., .
COc1nn(CC(=O)N2N=C(C)CC2(O)C(F)(F)F)cc1[N+](=O)[O-] (stereo not given)
  i, 3, 100, -0.4, 0.97, 0, 133
O=C(NCCN1CCCC1)C1CC(=O)N(C2CCCCC2)C1 (stereo not given)
  i, -12, 102, -2.6, 1, -27, 94
C=C1c2ccccc2S(=O)(=O)N(Cc2ccccc2)C1COCc1ccccc1 (stereo not given)
  i, ., 98, ., 1.2, ., .
COc1cc2c(cc1NC(=O)C(C)Sc1cccc[n+]1[O-])oc1ccccc12 (stereo not given)
  i, -4, 103, 0.1, 1, -7, 120
CCOC(=O)C1CCN(C(=O)c2cc3cc4cc(OC)ccc4nc3o2)CC1
  i, -6, 104, -1.0, 0.92, 33, 87
CCOC(=O)Cn1c(=O)oc2cc(S(=O)(=O)NCCC(C)C)ccc21
  i, -4, 105, -1.9, 0.69, ., .
CC(C)N(Cc1cc2ccccc2[nH]c1=O)C(=O)c1cccc([N+](=O)[O-])c1
  i, ., 104, ., 1.3, ., .
Cc1sc2nc(CN(C(=O)NC3CCCCC3)C3CCCC3)[nH]c(=O)c2c1C
  i, -6, 147, -0.9, 0.89, 13, 109
CCOC(=O)N1CCN(C(=O)c2ccc(Cl)c(S(=O)(=O)Nc3ccccc3)c2)CC1
  i, 2, 100, 0.9, 0.87, -16, 141
CCCc1nnc(SCC(=O)N2CCCC(C)C2)n1CCCOC (stereo not given)
  i, -4, 108, -1.3, 0.97, ., .
CCC12CN3CCN(CC(C3)/C1=N\NC(=O)c1ccc(C(C)(C)C)cc1)C2
  i, 5, 98, -1.2, 0.91, 7, 148
CC(C)Cn1c2c(c(=O)[nH]c1=O)C(C(F)(F)F)(C(F)(F)F)N=C(CCC1CCCCC1)N2
  i, 0, 102, 3.9, 0.7, 3, 65
CC(=O)N1N=C2c3ccccc3CCC2C1c1ccc(F)cc1 (stereo not given)
  i, ., 105, ., 1, ., .
COc1ccc(CC(=O)Nc2cc(C)ccn2)cc1
  i, -8, 103, -2.3, 1.1, -35, 106
Cc1nn(-c2ccc(Cl)c(Cl)c2Cl)c(=O)c2ccccc12
  i, -5, 105, -2.2, 1, -29, 144
Cc1ccc(NC(=O)Cn2cc(S(=O)(=O)c3ccc(C)cc3)c(=O)c3cc(F)ccc32)cc1
  ., -19, 104, -0.6, ., 22, 85
Cc1ccc(CSCCNC(=O)CN(c2ccccc2)S(C)(=O)=O)cc1
  i, 2, 105, ., 0.77, ., .
CCS(=O)(=O)N1CCC(C(=O)NCCc2ccccc2)CC1
  i, -6, 107, -0.6, 0.96, ., .
Cc1ccccc1/C=N/NC(=O)Cc1ccc(Cl)cc1
  i, -4, 98, ., 0.88, 25, 111
CCOc1cc(S(=O)(=O)N2CCC(c3nc4ccccc4s3)CC2)c(OCC)cc1S(=O)(=O)N1CCCCC1
  i, -18, 93, -1.1, 1, 10, 42
CCC(=O)N1N=C(c2ccc(NS(C)(=O)=O)cc2)CC1c1ccc(C)cc1 (stereo not given)
  i, 0, 98, -1.4, 0.92, 28, 51
O=C1CC(N2CCSCC2)C(=O)N1CCc1ccccc1 (stereo not given)
  i, -2, 100, -5.1, 0.88, 5, 106
CCOc1cc(/C=C2/NC(=S)NC2=O)ccc1OCc1ccc([N+](=O)[O-])cc1
  i, -1, 94, -0.6, 0.62, 32, 153
Cn1c(Cc2ccccc2)n[nH]c1=S
  i, -11, 104, -0.9, 0.91, ., .
Cc1nnc(NC(=O)C2COc3ccccc3O2)s1 (stereo not given)
  i, 0, 106, -0.5, 0.83, -42, 32
CCS(=O)(=O)N1CCCC(C(=O)NCc2ccc(C)cc2)C1 (stereo not given)
  i, -1, 100, -1.4, 0.96, 35, 145
Cc1ccc2[nH]c3c(c2c1)CN(C)CC3
  i, -5, 94, -1.5, 0.92, 44, 127
Cc1ccc(C(=O)Nc2c(C)cc(-c3ccccc3)oc2=O)cc1
  i, -2, 95, ., 0.79, ., .
Cc1cc(C(=O)NCCCN(C)C)c2ccccc2n1
  i, -5, 100, ., 1, 78*, 82*
O=C(CCC1COc2ccccc2O1)Nc1cccnc1 (stereo not given)
  i, 3, 101, -0.5, 0.89, -200, 85
C=C(C)CSc1nc(N)c2c(C)c(C)sc2n1
  i, -5, 104, -1.7, 0.92, -19, 42
CCCCCNC(=O)CCCCn1c(=O)[nH]c2cc(OCC)c(OCC)cc2c1=O
  i, -3, 102, 0.0, 0.9, ., .
COc1ccc(Cl)cc1Nc1nc(C)cc(C)c1C(N)=O
  i, -5, 109, -0.7, 1, 53, 77
CCCN(CCC)CCCNC(=O)c1cn(CCOC)c(=O)c2c1c1ccccc1n2C
  i, -6, 103, -2.4, 1.1, ., .
O=C(CCn1cccc1)NCc1ccccc1
  i, 11, 100, -1.9, 0.97, 21, 112

Of the compounds above, these contain a thiophene ring, fused or not.
Under each structure: HSV replic up, PKD1 kinase inh, RGS16-Gao, GALR2 ag, HSV replic up primary fold, INS promoter inh, INS promoter inh cell count
O=C(N1CCN(c2ccccc2F)CC1)C1(c2cccs2)CCOCC1
  i, 1, 99, -0.8, 1.1, ., .
C/C(=N\NC(=O)c1cccc(S(=O)(=O)N2CCCC2)c1)c1cccs1
  i, -4, 100, ., 0.95, ., .
CC(C)CCNc1nc2ccccc2nc1NS(=O)(=O)c1cccs1
  i, ., 102, ., 1, ., .
Cc1sc2nc(CN(C(=O)NC3CCCCC3)C3CCCC3)[nH]c(=O)c2c1C
  i, -6, 147, -0.9, 0.89, 13, 109
C=C(C)CSc1nc(N)c2c(C)c(C)sc2n1
  i, -5, 104, -1.7, 0.92, -19, 42

Remaining list, next part.
Under each structure: HSV replic up, PKD1 kinase inh, RGS16-Gao, GALR2 ag, HSV replic up primary fold, INS promoter inh, INS promoter inh cell count
COCCN(C(C)=O)c1nnc(-c2cnccn2)s1
  ., -3, ., -0.9, ., ., .
Cc1cc(C)cc(N(CC(=O)Nc2cccc(C)n2)S(=O)(=O)c2c(C)noc2C)c1
  i, 0, 99, -0.9, 0.85, ., .
CCOC(=O)c1c(CN(C)C)n(-c2ccccc2)c2cc(Br)c(OC)cc12
  i, -6, 100, 0.3, 0.75, -27, 99
CCOC(=O)C1=C(C)NC(=S)NC1c1ccc(-c2ccc(Cl)cc2)o1 (stereo not given)
  i, 2, 107, -0.7, 0.99, -45, 124
O=C1c2cc(S(=O)(=O)NCCCO)ccc2-c2ccc(S(=O)(=O)NCCCO)cc21
  i, 1, 122, -2.0, 0.92, -28, 87
CCOc1ccccc1CN1CCN(Cc2cccc3nonc23)CC1CCO (stereo not given)
  i, 3, 105, ., 1, -67, 101
Cc1cc(C(=O)NCc2ccco2)on1
  i, -12, 98, -0.2, 0.88, ., .
O=C(CCN1C(=O)c2cccc([N+](=O)[O-])c2C1=O)Nc1nccs1
  i, 0, 103, ., 1, 0, 128
CCOc1cc(C=O)cc(Cl)c1OCC(N)=O
  i, 1, 91, ., 1, 50, 67
CN1CCN(CCCNC(=O)c2cn(C)c3ccc(S(=O)(=O)N(C)C)cc3c2=O)CC1
  i, 3, 236, -1.5, 1.3, ., .
CCOC(=O)c1cc(C#N)c(Oc2cccc(C(F)(F)F)c2)nc1-c1ccccc1
  i, 9, 94, -0.5, 1, 16, 84
CCOc1ccccc1CNCCN1CCOCC1
  i, 4, 80, -2.7, 0.85, 31, 143
Cc1ccc(C)c(C(=O)CSc2nnc(C)s2)c1
  i, -2, 97, ., 0.96, -21, 135
COc1ccc(NC2(c3ccc(Cl)cc3)C(=O)c3ccccc3C2=O)cc1
  i, -10, 100, -0.4, 0.92, -17, 91
COc1ccc(C=C2C(=O)OC(C)(C)OC2=O)cc1OC
  i, ., 98, ., 0.82, ., .
O=C(c1ccc(F)cc1)n1cc(C(=S)N2CCOCC2)c2ccccc21
  i, -4, 100, ., 0.93, ., .
CCOC(=O)N1CCN(CCC(=O)Nc2ccc(Br)c(C)c2)CC1
  i, 3, 92, ., 0.93, -33, 116
O=C(O)c1cccc(N/N=C/C2=C(Cl)c3cc(Cl)ccc3SC2)c1
  i, -1, 98, ., 0.99, ., .
CCCc1ccc(C(=O)[C@@H]2[C@@H](C(C)=O)N3c4ccc(F)cc4C=C[C@@H]3[C@@]23C(=O)Nc2ccccc23)cc1
  i, ., 95, ., 1, ., .
COc1ccc(C(=O)N/N=C/c2c(C)[nH]c(=O)[nH]c2=O)cc1
  i, -4, 105, ., 1.1, ., .
COc1ccc(OCC(=O)NCCC2=CCCCC2)c([N+](=O)[O-])c1
  i, 1, 99, ., 0.91, ., .
Cc1ccccc1NS(=O)(=O)c1ccc(NC(=O)c2ccco2)cc1
  i, 1, 67, -1.1, 0.62, -38, 117
CCCCOc1ccc(C(=O)NCC2(c3ccccc3)CCOCC2)cc1
  i, -2, 101, -2.7, 0.97, ., .
CCCN(CCC)C(=O)CSc1nc2ccsc2c(=O)n1NC(=O)c1ccccc1
  i, -8, 98, -1.2, 0.89, -3, 138
CC(C)(C)Cc1nc(-c2ccc(Cl)cc2)no1
  i, 1, 108, -1.0, 0.91, 0, 58
COC(=O)N1[C@H](Cc2ccccc2)C=C[C@]1(C)C(=O)NCc1ccccn1
  i, -7, 88, -2.6, 1.1, -48, 110
COC(=O)C(CCSC)NC(=O)Cn1ncc2c(=O)oc3ccc(C)cc3c21 (stereo not given)
  i, -13, 96, -1.2, 1, ., .
